Bioassay records: PubChem BioAssay, Broad Institute
rRNA inh HTS: reduced GFP signal of wild-type E. coli, primary screen, bacterial rRNA inhibitor project, GFP/RFP fluorescence, OD600, single point; E. coli WT GFP vs humanized-ribosome RFP mutants, 24 h; active compounds read low; DMSO median 0, no signal -100; GFP signal change (wild-type ribosome), % (test concentration not listed); 350,000 compounds, 1.6% hits; AID 720706, 2013;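 active means significant combined selectivity score with lowered wild-type GFP, culture density cut under 30%, mutant RFP and density less affected; inactive means any of these conditions unmet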; further: one replicate is shown; some compounds called inactive have numbers as strong as hits
FGF22 binding: binders of human FGF22 protein, primary screen, FGF22 synaptogenesis inhibitor project, biophysical, thermal shift, single point | Fibroblast growth factor 22 (Homo sapiens), Q9HCT0 | recombinant FGF22 thermal shift, SYPRO orange fluorescence; percent of sucrose octasulfate shift, DMSO zero | calls only at 9.99 µM | 340,000 compounds, 1.5% hits | AID 651658, 2012;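 active means melting point raised past a set limit in the mean and every replicate; three in four hits are not shown here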
Target sequence (Q9HCT0 whole entry, looked up): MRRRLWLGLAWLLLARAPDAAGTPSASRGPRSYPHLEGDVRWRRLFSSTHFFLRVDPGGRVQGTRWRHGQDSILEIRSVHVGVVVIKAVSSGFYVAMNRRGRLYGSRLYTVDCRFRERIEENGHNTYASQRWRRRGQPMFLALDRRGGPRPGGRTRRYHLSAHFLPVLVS
AF4-AF9 inh: inhibitors of AF4 peptide binding to AF9, primary screen, biochemical, AlphaScreen, biotin-AF4 peptide, FLAG-AF9, single point | Protein AF-9 (Homo sapiens), P42568 | inhibition, % at 10 µM | 350,000 compounds, 0.47% hits | AID 651704, 2012;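 active means every replicate reaching a set inhibition limit, whatever the replicate mean, cut at about 25% in these data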;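 further: 0% = plate neutral control median and 100% = total signal loss; the record names both 10 and 1 µM as test concentration; the first replicate is given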
Target sequence (P42568 whole entry, looked up): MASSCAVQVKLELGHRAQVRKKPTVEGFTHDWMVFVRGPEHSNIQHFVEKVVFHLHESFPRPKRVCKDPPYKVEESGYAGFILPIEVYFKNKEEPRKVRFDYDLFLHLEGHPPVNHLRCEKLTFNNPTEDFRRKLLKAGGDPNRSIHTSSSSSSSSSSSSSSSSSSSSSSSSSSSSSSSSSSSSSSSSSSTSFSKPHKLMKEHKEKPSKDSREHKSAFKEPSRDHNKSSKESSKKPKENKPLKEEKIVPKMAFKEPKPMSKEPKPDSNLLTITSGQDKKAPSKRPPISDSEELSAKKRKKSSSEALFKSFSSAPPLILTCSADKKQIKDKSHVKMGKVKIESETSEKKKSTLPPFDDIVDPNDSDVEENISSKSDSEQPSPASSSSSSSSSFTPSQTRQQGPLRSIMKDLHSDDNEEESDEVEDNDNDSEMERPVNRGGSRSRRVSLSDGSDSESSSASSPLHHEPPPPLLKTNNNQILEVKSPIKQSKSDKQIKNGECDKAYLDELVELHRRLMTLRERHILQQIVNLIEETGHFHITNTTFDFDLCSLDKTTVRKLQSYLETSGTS
rRNA inh HTS OD600: recorded beside rRNA inh HTS, whose call it bears; OD600 change, %; measured here: OD600 growth;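 optical density of the mix in the first replicate; 0 = DMSO median and -100 = no signal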
rRNA inh HTS RFP: second read-out of rRNA inh HTS, no call of its own (marks repeat the call); RFP signal change, %; measured here: RFP humanized mutant strains;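 first replicate; 0 = DMSO median and -100 = no signal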
Starred values were filed as active, the others as inactive; i = inactive; & = joins results of further samples. Some of the compounds tested; the hit share may differ from the screen's.

canonical_smiles	rRNA inh HTS	rRNA inh HTS OD600	rRNA inh HTS RFP	FGF22 binding	AF4-AF9 inh
C[C@H]1CN([C@@H](C)CO)C(=O)Cc2cc(NC(=O)c3ccncc3)ccc2O[C@@H]1CN(C)Cc1ccc2c(c1)OCO2	-5	-8	4.5	i	-1.0
CO[C@H]1CN(C)C(=O)c2cc(NC(=O)NC(C)C)ccc2OC[C@@H](C)N(C)C[C@H]1C	-1	1	-2.1	i	-0.7
CC(=O)Nc1ccc(S(=O)(=O)NC(C)C(=O)OCC(=O)Nc2ccc(F)cc2Cl)cc1 (stereo not given)	5	16	-2.1	i	-1.6
O=C(C[C@@H]1CC[C@@H]2[C@H](COC[C@@H](O)CN2C(=O)Nc2cc(Cl)cc(Cl)c2)O1)NCC1CCCCC1	-26	-44	22	i	-0.5
Cc1ccccc1-c1cnc2c(c1)C(=O)N([C@@H](C)CO)C[C@H](C)[C@@H](CN(C)Cc1ccncc1)O2	-2	8	3.0	i	-0.5
C[C@@H]1CN([C@H](C)CO)C(=O)c2cc(-c3cncnc3)cnc2O[C@H]1CN(C)Cc1ccc(F)cc1	0	6	-2.3	i	-3.9
CN(C)CC(=O)Nc1ccc2c(c1)[C@@H]1C[C@@H](CC(=O)NCCN3CCCCC3)O[C@H](CO)[C@@H]1O2	-1	7	-3.3	i	1.1
C[C@@H]1CN([C@@H](C)CO)C(=O)c2cccc(NC(=O)c3nc4ccccc4s3)c2O[C@@H]1CN(C)S(=O)(=O)c1ccc(Cl)cc1	4	15	0.9	i	1.2

Of the compounds above, these have sulfur.
canonical_smiles	rRNA inh HTS	rRNA inh HTS OD600	rRNA inh HTS RFP	FGF22 binding	AF4-AF9 inh
CC(=O)Nc1ccc(S(=O)(=O)NC(C)C(=O)OCC(=O)Nc2ccc(F)cc2Cl)cc1 (stereo not given)	5	16	-2.1	i	-1.6
C[C@@H]1CN([C@@H](C)CO)C(=O)c2cccc(NC(=O)c3nc4ccccc4s3)c2O[C@@H]1CN(C)S(=O)(=O)c1ccc(Cl)cc1	4	15	0.9	i	1.2

Limited to rRNA inh HTS, AF4-AF9 inh and rRNA inh HTS RFP (six entries from above):
Molecule	rRNA inh HTS	AF4-AF9 inh	rRNA inh HTS RFP
CO[C@H]1CN(C)C(=O)c2cc(NC(=O)NC(C)C)ccc2OC[C@@H](C)N(C)C[C@H]1C	-1	-0.7	-2.1
CN(C)CC(=O)Nc1ccc2c(c1)[C@@H]1C[C@@H](CC(=O)NCCN3CCCCC3)O[C@H](CO)[C@@H]1O2	-1	1.1	-3.3
C[C@@H]1CN([C@H](C)CO)C(=O)c2cc(-c3cncnc3)cnc2O[C@H]1CN(C)Cc1ccc(F)cc1	0	-3.9	-2.3
O=C(C[C@@H]1CC[C@@H]2[C@H](COC[C@@H](O)CN2C(=O)Nc2cc(Cl)cc(Cl)c2)O1)NCC1CCCCC1	-26	-0.5	22
Cc1ccccc1-c1cnc2c(c1)C(=O)N([C@@H](C)CO)C[C@H](C)[C@@H](CN(C)Cc1ccncc1)O2	-2	-0.5	3.0
C[C@H]1CN([C@@H](C)CO)C(=O)Cc2cc(NC(=O)c3ccncc3)ccc2O[C@@H]1CN(C)Cc1ccc2c(c1)OCO2	-5	-1.0	4.5

Going on with the list:
canonical_smiles	rRNA inh HTS	rRNA inh HTS OD600	rRNA inh HTS RFP	FGF22 binding	AF4-AF9 inh
O=S(=O)(N[C@H]1CC[C@@H](CCn2cc(-c3ccccc3F)nn2)O[C@H]1CO)c1ccc(F)cc1	-6	-13	-5.0	i	-2.1
COc1ccc(C#Cc2ccc3c(c2)[C@H]2[C@H](CCN2S(=O)(=O)c2ccccc2C)[C@H](CO)N3C)cc1	2	2	0.7	i	-3.8
C[C@H]1CN([C@@H](C)CO)S(=O)(=O)c2ccc(C#CC3CC3)cc2O[C@@H]1CN(C)C(=O)C1CCC1	-4	-4	-1.2	i	3.4
COCC#Cc1cnc2c(c1)C(=O)N([C@H](C)CO)C[C@H](C)[C@@H](CN(C)C(=O)CCN1CCCCC1)O2	9	16	-2.6	i	-3.3
CC1(C)CN(C2CCCCC2)C(=O)[C@H]1CC(=O)Nc1ccc(Br)cc1	14	7	3.6	i	-0.5
C[C@H]1CN([C@@H](C)CO)C(=O)c2cccc(NS(=O)(=O)c3ccc(F)cc3)c2O[C@H]1CN(C)Cc1ccccc1	-1	0	1.3	i	-2.7
O=C1CC(NNc2ccccc2)C(=O)N1c1ccc(N2CCCCC2)cc1 (stereo not given)	-6	0	-1.8	i	5.9
COc1ccc(S(=O)(=O)N(C)C[C@@H]2OCCCC[C@H](C)Oc3ccc(NS(=O)(=O)c4ccc(Cl)cc4)cc3C(=O)N([C@@H](C)CO)C[C@@H]2C)cc1	2	8	-1.2	i	-1.4
CCCS(=O)(=O)NC(=O)C1(C)CCCN(C(=O)c2cc(-c3ccccc3)cs2)C1 (stereo not given)	-19	-22	-2.6	i	-2.1
COC(=O)[C@H]1N[C@H]2c3ccc(C4=CCCCC4)c(=O)n3C[C@H]2[C@@H]1CO	1	11	-0.2	i	1.0
CC(C)C#Cc1ccc([C@@H]2[C@H](CO)N3C(=O)CN(S(=O)(=O)c4ccccc4)C[C@@H]23)cc1	-1	-17	-1.2	i	-1.7
CN1c2ccc(-c3ccccc3)cc2[C@H]2[C@H](CCN2C(=O)Cc2ccccc2)[C@H]1CO	-34	-59	4.4	i	3.5
CN(Cc1ccccc1)C(=O)c1cccc(NC(=O)Cc2ccc(NC(=O)C3CCN(S(=O)(=O)c4cccc([N+](=O)[O-])c4)CC3)cc2)c1	-1	-3	-3.7	i	-2.0
C[C@@H]1CN([C@@H](C)CO)C(=O)c2cccc(NC(=O)C3CCCCC3)c2O[C@H]1CN(C)C(=O)Nc1ccc2c(c1)OCO2	1	3	-2.0	i	2.2
CC(C)NC(=O)N(C)C[C@H]1Oc2cc(C#Cc3ccc(F)cc3)ccc2S(=O)(=O)N([C@@H](C)CO)C[C@H]1C	-4	-3	2.3	i	1.4
COc1ccc(NC(=O)N(C)C[C@H]2Oc3ccc(NC(=O)Nc4ccccc4)cc3C(=O)N([C@H](C)CO)C[C@H]2C)cc1	-1	-10	-1.2	i	1.7
Cc1ccc(S(=O)(=O)Nc2cccc3c2O[C@H](CN(C)CC2CC2)[C@@H](C)CN([C@@H](C)CO)C3=O)cc1	1	9	-2.3	i	-3.6
C[C@@H]1CN([C@@H](C)CO)C(=O)c2c(c3ccccc3n2C)-c2ccccc2CO[C@H]1CN(C)S(=O)(=O)c1cn(C)cn1	-3	6	-1.9	i	1.1
C[C@@H]1CN([C@H](C)CO)C(=O)c2cc(NS(=O)(=O)c3ccc(F)cc3)ccc2O[C@@H]1CN(C)CC1CC1	4	4	0.5	i	-0.5
O=C(c1ccccn1)N1C[C@H]2[C@@H](c3ccccc31)[C@H](CO)N2C(=O)C1CCOCC1	2	2	-0.7	i	-1.4
COc1cccc(-c2ccc3c(c2)[C@@H]2[C@@H](CCN2C(=O)c2ccc(F)cc2)[C@@H](CO)N3)c1	-1	-13	22	i	-0.3
C[C@H]1CN([C@@H](C)CO)C(=O)c2cc(C#CC3CCCCC3)cnc2O[C@@H]1CN(C)Cc1cncnc1	0	-4	3.7	i	4.5
COc1cccc(C(=O)NCCS(=O)(=O)N2CCCC(C)C2)c1 (stereo not given)	8	6	5.1	i	0.2
Cc1ccccc1S(=O)(=O)N(C)C[C@@H]1OCc2cnnn2CCCC(=O)N([C@H](C)CO)C[C@H]1C	10&4	8&6	1.1&-0.4	i	-3.8&2.4
CN(C[C@@H]1N[C@@H](CO)[C@@H]1c1ccc(-c2cccc(F)c2)cc1)S(C)(=O)=O	-1	3	-1.6	i	0.7
COc1ccccc1C#Cc1cnc2c(c1)C(=O)N([C@@H](C)CO)C[C@H](C)[C@H](CN(C)C(=O)CC1CC1)O2	1	18	-2.3	i	-0.4
OCC1OC(n2cnc3c(SCc4ccccc4)nc(F)nc32)C(O)C1O (stereo not given)	-2	-22	-6.4	i	-0.6
CC(C)C(OC(=O)C1=Cc2ccccc2OC1)C(=O)NCC1CCCO1 (stereo not given)	5	1	8.7	i	-1.4
COc1cccc(Cn2c3ccc(NC(=O)Cc4cc(OC)ccc4OC)cc3c(=O)n2C)c1	-6	-11	0.5	i	-0.4
CN1[C@H](CO)[C@H]2c3ccccc3N(C(=O)Nc3cc(F)ccc3F)C[C@H]21	-2	2	1.4	i	0.5
CC(C)C[C@H]1CN([C@@H](Cc2ccccc2)CN2CCC[C@H]2CN2C(=O)C(=O)NC[C@@H]2Cc2ccc(O)cc2)C(=O)C(=O)N1CC1CCCCCC1	-4	-29	5.6	i	5.1
CCCNC(=O)N1C[C@@H](C)[C@H](OC)CN(C)C(=O)c2ccc(NS(=O)(=O)CC(F)(F)F)cc2OC[C@H]1C	0	2	-3.3	i	-1.8
CCCCN1CC(COCc2ccccc2)Oc2cccc(F)c2S1(=O)=O (stereo not given)	2	-6	-0.7	i	-7.0
O=C(c1cccc(F)c1)N1C[C@@H]2[C@H](c3ccccc31)[C@@H](CO)N2C(=O)C1CC1	-1	4	1.1	i	0.8
COc1ccc(S(=O)(=O)N(C)C[C@H]2Oc3ncc(C#CC4(O)CCCC4)cc3C(=O)N([C@H](C)CO)C[C@@H]2C)cc1	-7	-12	0.0	i	-1.6
COc1ccc(NC(=O)Nc2ccc3c(c2)C(=O)N([C@H](C)CO)C[C@@H](C)[C@@H](CN(C)S(=O)(=O)c2ccccc2)O3)cc1	-4	-10	-3.2	i	-0.7
COc1ccc(NC(=O)N[C@@H]2CC[C@@H](CC(=O)NC3CCCCC3)O[C@H]2CO)cc1	-3	-3	0.8	i	-2.1
C[C@@H]1CCCCO[C@H](CN(C)Cc2ccncc2)[C@H](C)CN([C@H](C)CO)C(=O)c2cc(NC(=O)C3CCCCC3)ccc2O1	-2	3	-1.5	i	3.7
Cc1noc(C)c1NC(=O)Nc1ccc2c(c1)C(=O)N([C@@H](C)CO)C[C@@H](C)[C@H](CN(C)CC1CC1)OCCCC[C@@H](C)O2	5	3	2.0	i	-5.7
CCCCCCCCN1C(=O)[C@H](CC(=O)NCc2ccccc2)C[C@@]2(C(=O)OCC)CCCC=C12	12	7	2.4	i	4.7
CN1C[C@@H]2[C@@H]3C(=O)N(Cc4ccccc4)C(=O)[C@@H]3[C@](C)(C1=O)N2C(=O)c1ccc(F)cc1	-1	-6	1.8	i	5.5
O=C1OCCC1(c1ccccc1)c1ccccc1	5	1	1.2	i	-3.8
CN1C(=O)c2cc(NC(=O)C3CCCC3)ccc2OC[C@@H]2O[C@@H](CC(=O)NCC3CC3)CC[C@H]21	2	4	-0.3	i	2.4
CCc1nc2ccc(C(=O)NCCOc3ccc(OC)cc3)cn2c1N(CC)Cc1ccc(OC)c(OC)c1	4	-9	12	i	3.2
C[C@@H]1CN([C@@H](C)CO)C(=O)c2cc(NC(=O)Cc3ccccc3)ccc2O[C@H]1CN(C)C(=O)NC1CCCCC1	-2	-3	-0.7	i	0.6
CS(=O)(=O)N1[C@@H]2Cn3c(cccc3=O)[C@H]1[C@@H](C(=O)NCc1ccc(F)cc1)[C@@H]2CO	2	13	0.3	i	-0.3
CC1=C(O)C(=O)C(C2=C(O)C(=O)C(C)=C(O)C2=O)=C(O)C1=O	-11	0	-18	i	-14
C[C@H](CO)N1C[C@H](C)[C@H](CN(C)C(=O)c2cccnc2)Oc2cc(-c3cccc(C#N)c3)ccc2S1(=O)=O	-2	19	1.9	i	-1.1
CC(O)(c1cccnc1)c1nc(-c2cccc3cccnc23)cs1 (stereo not given)	6	-3	-3.6	i	-3.1
COc1ccc2c3c([nH]c2c1)[C@@H](CO)N(S(=O)(=O)c1ccc(C)cc1)CC31CN(Cc2ccccc2)C1	-40	-68	3.5	i	-6.4
CO[C@@H]1CN(C)C(=O)c2ccc(NS(=O)(=O)c3cn(C)cn3)cc2OC[C@H](C)N(C)C[C@@H]1C	1	4	-2.0	i	-1.3
CN1CCN(C(=O)C[C@@H]2CC[C@@H]3[C@H](COC[C@@H](O)CN3S(=O)(=O)c3cccc(Cl)c3)O2)CC1	7	7	-2.1	i	-3.7
COc1cccc(-c2cnc3c(c2)C(=O)N([C@H](C)CO)C[C@H](C)[C@H](CN(C)Cc2cccc(C(F)(F)F)c2)O3)c1	-3	24	-5.7	i	5.4
